High-throughput results: PubChem BioAssay, National Center for Advancing Translational Sciences (NCATS)
VDR inh – vitamin D3 receptor (human) inhibition. P11473. VDR-SRC2-3 peptide fluorescence polarization, 2 h. Potency, µM, for the others: max response, negative = inhibition, hits mostly inhibitors. 0.93% of 400,000 active. AID 504847; active means well fitted inhibition curve with a large enough effect; inconclusive means small, poorly fitted or top-dose-only effect, or another doubt; inactive means no such curve, though single readings can be large or run the other way; further: series mostly up to about 120 µM
Target sequence (P11473 whole entry, looked up): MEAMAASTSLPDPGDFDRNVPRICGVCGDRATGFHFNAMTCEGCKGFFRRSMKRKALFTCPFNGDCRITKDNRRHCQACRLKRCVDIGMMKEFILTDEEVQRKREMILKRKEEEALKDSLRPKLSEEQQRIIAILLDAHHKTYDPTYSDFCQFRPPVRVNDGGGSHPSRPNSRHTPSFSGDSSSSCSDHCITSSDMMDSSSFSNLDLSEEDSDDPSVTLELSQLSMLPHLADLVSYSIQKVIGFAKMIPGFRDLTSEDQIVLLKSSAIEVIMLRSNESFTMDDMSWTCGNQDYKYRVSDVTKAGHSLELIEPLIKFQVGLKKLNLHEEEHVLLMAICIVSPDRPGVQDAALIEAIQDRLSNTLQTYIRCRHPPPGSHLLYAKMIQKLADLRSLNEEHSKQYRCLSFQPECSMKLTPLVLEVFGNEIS
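Fluorescence polarization assay measuring small-molecule disruption of VDR binding to the coregulator peptide SRC2-3. Compounds were pin-transferred (23 nl) into the reagent mix and incubated 2 h at room temperature before reading.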
An asterisk follows results filed as active; ? = inconclusive; & = joins results of further samples. On the % scale 0 is the no-effect control and ±100 the full control effect; potency means the concentration at half of the fitted maximal effect. A portion of the library, so the mix of outcomes need not match the whole.

SMILES	VDR inh
COc1ccc(CCNC(=O)c2ccc(=O)[nH]n2)cc1OC	7%
CCOc1ccc(C(=O)c2cccs2)cc1	2%
OCCC1CN(Cc2ccn[nH]2)CCN1Cc1ccc(F)c(F)c1 (centres undefined)	0%
CC1CCCC(C)N1C(=O)COc1ccc(-c2nnco2)cc1 (centres undefined)	10%
C=C(C)COC(=O)c1ccccc1C(=O)OCC1(C)CO1 (centres undefined)	5%
CCN1CCN(C(=O)c2cnn(-c3ccc(F)cc3F)c2C2CCN(C(=O)OC(C)(C)C)CC2)CC1	16%
CC(C)CC(=O)Nc1ccc2nc(SCC(=O)N3CCOCC3)sc2c1	-20%
Cc1c(CN2CCc3c([nH]c4ccccc34)C2CC(C)C)cnn1C (centres undefined)	9%
C=CCNC(=O)COC(=O)COc1ccc(Cl)cc1C	-9%
N#Cc1ccc(NC(=O)CCc2ccc(S(=O)(=O)N3CCOCC3)cc2)cc1	16%
CCOc1ccc(S(=O)(=O)Nc2ccccc2C(=O)N2CCOCC2)cc1	7%
COc1cc(CNn2c(C)n[nH]c2=S)cc(Br)c1OCC(=O)NC(C)(C)C	-4%
COc1ccc(N2CCN(C(CNC(=O)OCc3ccccc3)c3ccco3)CC2)cc1 (centres undefined)	-7%
C=CCSc1nnc2c(n1)OC(c1ccccn1)N(C(C)=O)c1ccccc1-2 (centres undefined)	-5%
CCn1c(SCC(=O)Nc2ccc3c(c2)OCCO3)nnc1-c1ccco1	-4%
Cc1ccc(SCCCn2cncn2)cc1	-19%
Cc1ccc(C2(C)NC(=O)N(CC(=O)NNC(=O)c3ccccc3F)C2=O)cc1 (centres undefined)	?
Cc1ccccc1CSc1nc2[nH]ncc2c(=O)[nH]1	-18%
COc1ccc(N(CN2C(=O)C3CCCCC3C2=O)C(=O)c2ccco2)cc1 (centres undefined)	-18%
COc1cc(OC)cc(C(=O)N2CCC(C(=O)c3ccc(F)cc3)CC2)c1	14%
CCc1cc(=O)oc2cc(OCC(=O)N3CCC(C(=O)O)CC3)ccc12	-10%
O=C(CCl)Nc1c(C(=O)Nc2ccc3c(c2)OCCO3)oc2ccccc12	-3%
COc1cc(C(=O)NC(CCSC)C(=O)OCc2cc([N+](=O)[O-])cc3c2OCOC3)cc(OC)c1OC (centres undefined)	-23%
C=C(C)CNC(=S)/N=c1\scc(C)n1CC	5%
CC1CN(S(=O)(=O)c2cccc(C(=O)NN3CCN(C)CC3)c2)CC(C)O1 (centres undefined)	-1%

Reformatted as a markdown table: 3 of the compounds above
| SMILES | VDR inh |
| --- | --- |
| C=CCSc1nnc2c(n1)OC(c1ccccn1)N(C(C)=O)c1ccccc1-2 (centres undefined) | -5% |
| CCn1c(SCC(=O)Nc2ccc3c(c2)OCCO3)nnc1-c1ccco1 | -4% |
| Cc1ccc(SCCCn2cncn2)cc1 | -19% |

Reformatted with values ahead of the structure: entries from further up
VDR inh | molecule
-4% | CCn1c(SCC(=O)Nc2ccc3c(c2)OCCO3)nnc1-c1ccco1
-19% | Cc1ccc(SCCCn2cncn2)cc1
? | Cc1ccc(C2(C)NC(=O)N(CC(=O)NNC(=O)c3ccccc3F)C2=O)cc1 (centres undefined)
-18% | Cc1ccccc1CSc1nc2[nH]ncc2c(=O)[nH]1
-18% | COc1ccc(N(CN2C(=O)C3CCCCC3C2=O)C(=O)c2ccco2)cc1 (centres undefined)
14% | COc1cc(OC)cc(C(=O)N2CCC(C(=O)c3ccc(F)cc3)CC2)c1
-10% | CCc1cc(=O)oc2cc(OCC(=O)N3CCC(C(=O)O)CC3)ccc12

Looked up above:
VDR inh result of `COc1cc(OC)cc(C(=O)N2CCC(C(=O)c3ccc(F)cc3)CC2)c1` stands at 14%
VDR inh result of `CCN1CCN(C(=O)c2cnn(-c3ccc(F)cc3F)c2C2CCN(C(=O)OC(C)(C)C)CC2)CC1` stands at 16%
VDR inh result of `COc1ccc(CCNC(=O)c2ccc(=O)[nH]n2)cc1OC` stands at 7%

Continuation:
SMILES	VDR inh
O=Cc1nc(-c2ccccc2Cl)n2ccccc12	-10%
COc1ccc(N2CCN(C(c3cc4ccc(C)cc4[nH]c3=O)c3nnnn3C3CCCC3)CC2)cc1 (centres undefined)	14%
CCn1cc(C(=O)NC2CCCCCC2)c(=O)c2cc(S(=O)(=O)N3CCCCC3)ccc21	-2%
O=C(Cc1cccs1)NCc1cccc(CNC(=O)Cc2cccs2)c1	9%
CCOC(=O)c1c(NC(=O)c2ccccc2C(=O)O)sc2c1CCC2	-14%
COc1ccc(-n2c(C)cc(C(=O)Cn3c(NCCO)nc4ccccc43)c2C)cc1	-7%
Cn1c(=O)[nH]c(=O)c2[nH]cnc21	-3%
CCOC(=O)c1c(-c2ccccc2)csc1NC(=O)c1cc(=O)c2ccc(C)cc2o1	24%
CCOC(=O)NC1(Nc2ccc(C)cc2)Oc2ccccc2O1	-12%
Nc1n[nH]c(N)c1N=Nc1ccccc1F	12%
Cc1cc([N+](=O)[O-])ccc1-c1ccc(/C=N/NC(=O)c2ccc(Br)o2)o1	-15%
Cc1cccc(OCC2=N/C(=C\N(C)C)C(=O)O2)c1	-16%
CCOC(=O)CSc1nsc(SCC(=O)OCC)c1C#N	-6%
CCC(=O)N1CCc2cc(S(=O)(=O)CCC(=O)Nc3ccc(C)cn3)ccc21	-22%
CC1CCN(CCCNC(=O)CCCNC(=O)Cn2cnc3sc4c(c3c2=O)CCCC4)CC1	5%
Cc1ccc(S(=O)(=O)N(C)C)cc1NC(=S)NC(C)CCCC(C)C (centres undefined)	-11%
Cc1cc(Cl)ccc1OCC(=O)OC(C)C(=O)NC(N)=O (centres undefined)	-11%
CCN(CC)S(=O)(=O)c1cccc(NC(=O)C2SC(=Nc3ccc(C)cc3C)C(C(=O)NC(C)COC)=C2N)c1 (centres undefined)	10%
O=S(=O)(Nc1nc2ccccc2nc1OCC(F)(F)F)c1cccs1	-13%
O=C1NC(=O)/C(=C\c2ccccc2Oc2ccc(F)c(F)c2)S1	-9%
Cc1ccnc(NC(=S)NC(=O)/C=C/c2ccc(Cl)cc2)c1	-1%
Cc1cccc(C(=O)Nc2ccc(N3CCN(c4ccc(F)cc4)CC3)c(C(=O)O)c2)c1	5%
COCCn1c(=O)[nH]c2cc(C(=O)NCCCN3CCN(c4ccc(F)cc4)CC3)ccc2c1=O	?
COc1ccc(C2/C=C\CC(NC(=O)OCC3c4ccccc4-c4ccccc43)CC(=O)N2Cc2cccc(F)c2)cc1 (centres undefined)	-7%
O=C(Cc1ccc2ccccc2c1)Nc1ccccc1Br	-4%
SMILES	VDR inh
COc1cccc(-c2cc(C(=O)Nc3ccc(Br)c(C)c3)[nH]n2)c1	0%
Cc1cccn2c(=O)c(/C=C(\C#N)C(=O)NC3CCS(=O)(=O)C3)c(N3CCC(C)CC3)nc12 (centres undefined)	-3%
CS(=O)(=O)N(CC(=O)N1CCCCCC1)c1cccc(Br)c1	-4%
COc1ccc2ccccc2c1CNCc1ccc(C)cc1	3%
O=C(CN1c2cccc3cccc(c23)S1(=O)=O)NCc1ccc(Cl)cc1	8%
CCOCCCNC(=O)C(C)NS(=O)(=O)c1ccc(C)cc1 (centres undefined)	-3%
CCOc1ccc(-n2c(SCC(=O)Nc3nccs3)nc3c(c2=O)SCC3)cc1	-22%
CCC(=O)[C@@]1(C)[C@H](C)C[C@@H]2[C@@H]3CCC4=CC(=O)C=C[C@@]4(C)[C@H]3[C@H](O)C[C@]21C	-7%
CSc1ccc(-c2cc(=O)c3ccccc3o2)cc1	1%
COc1ccc(-c2cn3ccsc3n2)cc1	7%
COCCN(C(=O)COC(=O)c1ccccc1Oc1ccccc1)c1c(N)n(Cc2ccccc2)c(=O)[nH]c1=O	-1%
C=CCSC1=C(C#N)C2(CCCCC2)C(C#N)C(=O)N1 (centres undefined)	-4%
CC(=O)c1cc(F)c(N2CCCC2)cc1C	4%
CCN(CCO)c1nc(NCc2ccccc2)c2cnn(C)c2n1	4%
COc1ccc(C(=O)N/N=C2\CCc3ccccc32)cc1OC	18%
COc1ccc(OCC(=O)Nc2c3c(nn2-c2ccc(OC)cc2)CS(=O)(=O)C3)cc1	-1%
CC(=O)c1c(COC(=O)c2cccnc2)nc2ccccc2[n+]1[O-]	-1%
CC(=O)c1c2c3c(c(Br)ccc3n(C)c1=O)C(=O)c1ccccc1-2	14%
CC1Cc2ccccc2N1C(=O)c1ccc(N2CCCCC2)c([N+](=O)[O-])c1 (centres undefined)	-1%
COc1cc(C(=O)NCC2(N(C)C)CCCCC2)ccc1OCc1ccccc1	-6%
CCn1nccc1C(=O)Nc1ccc(Cl)cn1	-12%
N#C/C(=C(\O)c1cc(Cl)sc1Cl)c1nc2ccccc2[nH]1	4%
CNc1c([N+](=O)[O-])cnn1-c1ccccn1	-2%
CCc1nnc(NC(=O)CSc2nnc(Cc3ccccc3)o2)s1	-2%
O=C(COc1ccccc1Br)Nc1ccc2c(c1)OCCCO2	1%
SMILES	VDR inh
CCc1nnc(NC(=O)CCC(=O)O)s1	1%
O=C(O)C1C2CCC(C2)C1C(=O)NCc1ccco1 (centres undefined)	-7%
O=C1CCCN1CCCNc1nc2c(S(=O)(=O)c3ccccc3)nnn2c2ccc(Cl)cc12	13%
CCOc1ccc(N(CC(=O)NCCc2ccc(C)cc2)S(=O)(=O)c2c(C)noc2C)cc1	-2%
O=C(CCN1C(=O)/C(=C/c2ccccc2)SC1=S)NC1CCS(=O)(=O)C1 (centres undefined)	-15%
S=C(Nc1ccccc1)Nc1nccs1	?
COc1ccc(NC(=O)CN2CCC(C(N)=O)(N3CCCCC3)CC2)cc1	-18%
CCOc1ccc(S(=O)(=O)N(CC(=O)NCc2cccnc2)c2ccc(F)cc2)cc1	-15%
CC(C)OC(C)C	-12%
O=C(NCCc1ccccc1)C(=O)NCCC1CCCCN1S(=O)(=O)c1cccs1 (centres undefined)	1%
Cc1cccc(Nc2nc(NC(C)C)nc(Oc3ccc(=O)n(C)n3)n2)c1	18%
CCOc1ccc(NC(=O)Cn2cc(C(=O)c3ccc(CC)cc3)c(=O)c3cc4c(cc32)OCO4)cc1	-22%
O=C(Cn1cnc2c(nnn2Cc2ccccc2)c1=O)NCc1ccco1	-4%
O=C1OCC(CO)(CO)N=C1NNc1cc(Cl)ccc1Cl	-11%
NC(=O)C1CCCN(CC(O)COCc2ccc(Cl)cc2)C1 (centres undefined)	-7%
CN(C)c1ccc(NC(=O)CN2CCc3ccccc3C2)cc1	5%
COc1cc(/C=C2\SC(=S)N(NS(=O)(=O)c3ccc(C)cc3)C2=O)ccc1O	8%
COc1ccccc1CCn1c(=O)c(-c2cccs2)nc2cncnc21	3%
Cc1c(O)nc(SCC(=O)Nc2ccc3c4c(cccc24)CC3)n(-c2ccc(F)cc2)c1=O	-3%
O=C1N/C(=N\N=C\c2ccc3ncccc3c2)SC1Cc1ccc(SC(F)F)cc1 (centres undefined)	-3%
COc1cc(/C=C/C2=CC(C)(C)NC(=S)N2)cc(OC)c1OC	-17%
COc1ccccc1NC(=O)N1CC(=O)Nc2sc3c(c2C1c1ccccc1)CCCC3 (centres undefined)	6%
COc1ccc(NC(=O)CCCC(=O)c2ccccc2)cc1	-11%
O=C1[C@H]2[C@@H](C3CC3)N3C(=O)CN(CC4CC4)C(=O)[C@@]3(Cc3ccccc3)[C@H]2C(=O)N1c1ccccc1	-1%
O=C(N/C(C(=O)N1CCOCC1)=C(\Sc1ncccn1)c1ccccc1)c1ccccc1	-12%
SMILES	VDR inh
CN(Cc1ccccc1)S(=O)(=O)c1ccccc1[N+](=O)[O-]	1%
COc1ccc(/C(C)=C(\C#N)C(=O)OC(C)C)cc1OC	-9%
C=CCNC(=O)C(=O)Nc1ccc2c(c1)N(S(=O)(=O)c1cccs1)CCC2	-10%
CS(=O)(=O)Nc1nnc(Cc2ccccc2)s1	-7%
CC(Sc1oc(-c2ccco2)nc1S(=O)(=O)c1ccc(Br)cc1)c1ccccc1 (centres undefined)	21%
CC1CC(C)CN(C(=O)c2ccc(CNc3c(N4CCCC4)c(=O)c3=O)cc2)C1 (centres undefined)	-1%
CCN1CCN(CCCNC(=O)c2cc3c(=O)n(CC)c4ccccc4c3s2)CC1	-9%
COc1ncnc2c1oc1nc(C(C)C)c3c(c12)CC(C)(C)OC3	-18%
CN1CCc2c(sc(/N=C/c3c[nH]c4ccccc34)c2C(N)=O)C1	8%
CC(=O)Nc1c(C)ccc(S(N)(=O)=O)c1C	13%
OCCC1CN(Cc2nc3ccccc3s2)CCN1C1CCCCC1 (centres undefined)	17%
CC(=O)c1ccccc1NC(=O)COC(=O)CSCC(=O)Nc1cc(C)on1	-17%
CCOc1ccc(NC(=S)N2CCC(NC(=O)c3ccccc3C)CC2)cc1	-8%
OC(CN1CCC(Cc2ccc(F)cc2)CC1)c1ccc(Cl)cc1 (centres undefined)	1%&3%
CC(=O)Nc1nc(=S)n(-c2ccccc2)[nH]1	-26%
OC(CNCC1COc2ccccc2O1)COc1ccccc1F (centres undefined)	-4%
Cc1ccc(S(=O)(=O)NCCC(=O)NC(C)c2ccccc2)cc1 (centres undefined)	-17%
CCOc1ccccc1NC(=O)c1c(NCc2ccc(C)o2)sc2c1CCC(C)C2 (centres undefined)	-1%
Cc1ccc(NC2CCCN(C(=O)c3ccc4[nH]ccc4c3)C2)cc1C (centres undefined)	-16%
CCc1noc(C)c1C(=O)OCC(=O)c1ccc(OC)c(OC)c1	-6%
CCNC(=O)c1cc(S(=O)(=O)N(C)C)c(Cl)cc1Cl	-7%
COc1ccc(-c2nc3c4ccccc4n(CC(=O)Nc4ccc(C(C)=O)cc4)c(=O)n3n2)cc1	4%

Arranged by molar mass (lowest first): some entries from above
SMILES	VDR inh
COc1ccc(/C(C)=C(\C#N)C(=O)OC(C)C)cc1OC	-9%
CN1CCc2c(sc(/N=C/c3c[nH]c4ccccc34)c2C(N)=O)C1	8%
CC(=O)c1c2c3c(c(Br)ccc3n(C)c1=O)C(=O)c1ccccc1-2	14%
